# High-throughput results as filed in PubChem.
# VDR inhibitor: inhibitors of human vitamin D receptor; hit rate 0.93% among 400,000; VDR-SRC2-3 peptide fluorescence polarization, 2 h; P11473; Potency, µM, inactives show max response, negative = inhibition, most hits filed as inhibitors; active = well fitted inhibition curve with a large enough effect; inconclusive = small, poorly fitted or top-dose-only effect, or another doubt; inactive = no such curve, though single readings can be large or run the other way; also: series mostly up to about 120 µM
# Target sequence (P11473 whole entry, looked up): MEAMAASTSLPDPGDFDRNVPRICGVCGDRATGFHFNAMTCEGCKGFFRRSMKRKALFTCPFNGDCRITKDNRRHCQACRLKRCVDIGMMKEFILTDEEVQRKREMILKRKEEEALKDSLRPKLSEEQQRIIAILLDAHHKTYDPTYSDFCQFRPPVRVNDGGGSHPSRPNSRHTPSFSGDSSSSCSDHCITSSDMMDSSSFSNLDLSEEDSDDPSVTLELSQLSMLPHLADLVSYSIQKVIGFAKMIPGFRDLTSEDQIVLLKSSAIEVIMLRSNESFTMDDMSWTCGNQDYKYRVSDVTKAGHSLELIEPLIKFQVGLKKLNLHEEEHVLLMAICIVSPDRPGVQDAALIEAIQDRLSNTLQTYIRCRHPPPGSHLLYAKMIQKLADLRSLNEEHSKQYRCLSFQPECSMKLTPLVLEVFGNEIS
#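 Two reagent solutions held at 4 deg C in the dark were dispensed, compounds pinned at 23 nl, and the mixture incubated 2 h at room temperature. Read-out: fluorescence polarization of VDR–SRC2-3 peptide binding.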
# * hit, by the source's call; ? = inconclusive; & = joins results of further samples. % is scaled to controls: 0 for no effect and ±100 for the full control effect; potency is read from the fitted curve at half-maximal effect. These rows are one share of the data; the hit share may differ from the screen's.
SMILES,VDR inhibitor
O=C(NCc1ccco1)C(=O)NCC1OCCN1S(=O)(=O)c1ccc(Cl)cc1 (centres undefined),-12.2%
COc1ccccc1/C=N/NC(=O)c1ccc(C)nc1,-20.6%
O=C(COC(=O)c1ccc(-c2ccc([N+](=O)[O-])cc2)o1)NC(=O)NC1CCCCC1,9.2%
Cn1c(=O)c2[nH]c(=S)n(Cc3ccccc3)c2n(C)c1=O,?
CC(C)CCNC(=O)Nc1ccc2c(c1)N(C)C(=O)c1ccccc1S2,-0.6%
CCOC(=O)c1c(C)c(C(=O)NCc2ccc(Cl)cc2)c(C)n1CC,6.3%
O=C(NCc1ccc(F)cc1)c1ccc(CNc2c(N3CCOCC3)c(=O)c2=O)cc1,-1.6%
COc1cccc(N2CC(C(=O)Nc3nnc(SCC(=O)NCC4CCCO4)s3)CC2=O)c1 (centres undefined),1.5%
O=C1NC(O)(c2ccccc2)Oc2ccccc21 (centres undefined),-10.0%
CCCC(=O)Nc1ccc(C(N)=O)cc1,15.0%
CCSc1nnc(-c2cc(Br)ccc2N=Cc2c(C)[nH]n(-c3ccccc3)c2=O)c(=O)[nH]1,-5.3%
COc1ccccc1OCC(=O)N/N=C1\CCc2ccccc21,-7.1%
O=C(NCCS(=O)(=O)N1CCN(c2ccccc2)CC1)c1ccc2c(c1)OCO2,4.1%
Cc1ccc(C2CCN(C(=O)c3cnn(-c4ccc(C)cc4)c3C3CCN(C(=O)OC(C)(C)C)CC3)C2)cc1 (centres undefined),13.7%
Cc1ccc(-c2noc(CSc3nnc(-c4ccncc4)n3-c3ccc(F)cc3)n2)cc1,22.3%
COc1cccc(C(=O)NC(=S)Nc2ccc(N3CCCC3)cc2)c1,12.4%
Cc1ccc(NC(=O)CCn2cccc2)cc1F,7.7%
CCS(=O)(=O)N1CCN(C(=O)COc2ccc(-c3ccccc3)cc2)CC1,1.1%
CC1OC(Oc2ccc3ccc(=O)oc3c2-c2c(O)ccc3cc(Oc4ccc5ccc(=O)oc5c4)c(=O)oc23)C(O)C(O)C1O (centres undefined),-0.6%
CCC(C)[C@H](NC(=O)c1cc2cc(Cl)ccc2n1C)C(=O)N1CCC(C(=O)O)CC1 (some centres undefined),22.0%
C#CC(=O)N(c1cccc(OC)c1)C(C(=O)NC1CCCC1)c1cccs1 (centres undefined),-32.3%
O=C(CN1C2=NCCN2c2ccccc21)c1ccc(Br)s1,-8.7%
Nn1c(SCC(=O)Nc2ccc(N3CCOCC3)cc2)nnc1-c1ccccc1F,-19.9%
CSCC[C@@H](C(=O)NCc1cccs1)N1Cc2ccccc2C1=O,-25.7%
Cc1ccccc1Nc1nc(N)nc(CSCc2c(C)noc2C)n1,-13.4%
CCOC(=O)NN1C(=O)c2ccccc2NC1c1ccccc1F (centres undefined),-7.0%
COc1ccc(S(=O)(=O)N(C)CC(=O)Nc2ccccc2C(F)(F)F)cc1OC,15.2%
O=C(Cc1ccc(NC2=NC3CS(=O)(=O)CC3S2)cc1)N1CCN(c2ccc(F)cc2)CC1 (centres undefined),1.8%
CC1(C)Cc2c(sc3c2C2=NCCN2C=N3)CO1,4.8%
CCCCCCCCCCOC(=O)c1csc2nnsc12,12.1%
CC(C)OCCCNC(=O)CCSc1ccc(Cl)cc1,-2.7%
CCOC(=O)C1CCN(Cc2oc(CO)cc(=O)c2O)CC1,-6.5%
O=C(Nc1cc(Br)ccc1O)C1CC(c2c(F)cccc2Cl)=NO1 (centres undefined),-2.3%
CCOC(=O)c1ccc(N2C(=O)c3n[nH]c(-c4cccs4)c3C2c2ccc(OC)cc2OC)cc1 (centres undefined),-9.6%
COC(c1ccccc1)c1nnc(CCC(=O)N2CCCCCCC2)o1 (centres undefined),0.6%
Cc1cc(=O)oc2c3c(cc(OCC(=O)N4CCC(C(=O)O)CC4)c12)OC(C)(C)CC3,2.9%
CC1CC(C)CN(C(=O)COC(=O)c2ccc3c(c2)OCCO3)C1 (centres undefined),0.2%
O=C(NCCO)/C(=C\c1cccs1)NC(=O)c1cccs1,-1.9%
COc1ccc(S(=O)(=O)N2CCC(C(=O)NCCN3CCOCC3)CC2)cc1C,?
O=C(CCCN1C(=O)/C(=C/c2ccccc2OC(F)F)SC1=S)Nc1cccnc1,7.4%
CCc1ccccc1NC(=O)C1C2C=CC(O2)C1C(=O)O (centres undefined),-18.6%
COC(=O)CCC(=O)N1CCCC(CNS(=O)(=O)c2ccc(OC)cc2)C1 (centres undefined),12.5%
C=CCNCC(=O)NN=C(c1ccccc1)c1ccccc1,6.5%
CCCN(Cc1ccccc1)C(=S)Nc1ccc(C(C)=O)cc1,-3.0%
CCCN1CCC(=O)N(CCOc2ccccc2)CC1,-3.6%

# As a short view, 6 of the compounds above.
SMILES,VDR inhibitor
O=C(CCCN1C(=O)/C(=C/c2ccccc2OC(F)F)SC1=S)Nc1cccnc1,7.4%
CCc1ccccc1NC(=O)C1C2C=CC(O2)C1C(=O)O (centres undefined),-18.6%
COC(=O)CCC(=O)N1CCCC(CNS(=O)(=O)c2ccc(OC)cc2)C1 (centres undefined),12.5%
C=CCNCC(=O)NN=C(c1ccccc1)c1ccccc1,6.5%
CCCN(Cc1ccccc1)C(=S)Nc1ccc(C(C)=O)cc1,-3.0%
CCCN1CCC(=O)N(CCOc2ccccc2)CC1,-3.6%

# More entries:
SMILES,VDR inhibitor
COc1ccc2cc(C3(C)NC(=O)NC3=O)ccc2c1 (centres undefined),-7.8%
Cc1ccc2onc(CNC(=O)NCc3cccc(Cl)c3)c2c1,-15.3%
S=C(c1ccccc1)N1CCN(C(=S)c2ccccc2)CC1,-14.9%
CCN(CC)CCOC(=O)c1ccc(NC(=O)/C=C/c2cccs2)cc1,1.5%
O=c1cc(CSc2ccccc2)nc(-c2ccccc2)[nH]1,-3.3%
Cc1c(Cl)cccc1NC(=O)Cn1cnc(S(=O)(=O)N2CCCC2)c1,-4.6%&11.2%
CC(C)CCNC(=O)NC(=O)COC(=O)CNC(=O)C1CCCCC1,-2.7%
O=C(CN1CCN(S(=O)(=O)c2ccccc2)CC1)Nc1ccc(Cl)cn1,4.5%
Cc1cccc(N2CCN(c3ncnc4onc(-c5ccc(F)cc5)c34)CC2C)c1 (centres undefined),5.5%
CN(CC1COc2ccccc2O1)C(=O)c1cccc(S(=O)(=O)N2CCCC2)c1 (centres undefined),2.5%
C#CCn1cc(/C=N/Nc2nc3ccccc3[nH]2)c2ccccc21,9.8%
Cc1cc(C(=O)OCC(=O)Nc2ccc(S(=O)(=O)N3CCOCC3)cc2)c(C)o1,0.9%
Cc1[nH][nH]c(=O)c1C(c1ccccc1[N+](=O)[O-])C(C#N)C#N (centres undefined),2.1%
O=C(NNC(=O)c1cccs1)c1csc(N2CCOCC2)n1,-4.4%
CN(c1ccccc1)S(=O)(=O)c1nnc(NC(=O)C2CCCCC2)s1,-6.3%&3.1%
COc1cccc(/C=C2\SC(=S)N(CCC(=O)Nc3ccc(O)cc3)C2=O)c1,1.4%
O=C(/C=C/c1ccc(Cl)cc1)N(Cc1cccs1)C1CCS(=O)(=O)C1 (centres undefined),6.8%
COc1ccc(Oc2nc(C)cc(C)c2S(C)(=O)=O)cc1,-3.2%
CCOCCCNC(=S)NCCCNc1nc2cc3c(cc2cc1C#N)OCO3,-0.6%
CCn1c(COc2cccc(C)c2C)nnc1SCC(=O)N1CCN(c2ccc(OC)cc2)CC1,16.1%
COC(=O)c1cc(NC(=O)c2cc(C(C)(C)C)nn2Cc2ccc(F)cc2)ccc1N1CCOCC1,8.3%
Cc1cccn2c(=O)c3cc(C(=O)N4CCCCC4C)sc3nc12 (centres undefined),1.9%
COc1cc(C(=O)O)nc(OC)n1,-7.2%
CCCCNC(=O)c1onc(CSc2cc(C)cc(C)c2)c1C(=O)NCCCC,-17.7%
Cc1ccc2nccc(C(=O)N3CCCC(Nc4ccc(F)cc4)C3)c2c1 (centres undefined),9.9%
CCN(C(=O)Cn1nc(Cc2ccncc2)c2ccccc2c1=O)c1cccc(C(F)(F)F)c1,-15.9%
O=C1NCCN1C(=O)c1ccco1,-6.7%
C=CCN(CC=C)S(=O)(=O)c1ccc(F)cc1,0.4%
COc1ccc(Cl)cc1-c1nc(N)nc(NC2CCCCC2)n1,-10.2%
COC(=O)c1ccccc1N=Nc1c(C)[nH][nH]c1=O,?
CC1C2=C(CC(C)(C)CC2=O)NC2=C1C(=O)CC(C)(C)C2,-13.3%
Cc1[nH]c(=O)c(C#N)c(C)c1CCC(=O)N(C)CC(=O)Nc1ccc(Cl)c(Cl)c1,4.7%
Cc1occc1C(=O)NNC(=O)c1ccccc1C(=O)O,1.0%
Cc1c(C)n(C)c2ccc(C(=O)NCCCN(C)C3CCCCC3)cc12,9.8%
C=CCNC(=O)c1cc2c(=O)c3ccccc3oc2nc1C,-2.0%
O=C(NC1CCCN(c2ccc(C(F)(F)F)cn2)C1)c1cc(Cl)ccc1F (centres undefined),-7.9%
CC(=O)Nc1ccc2[nH]c3ccccc3c2c1,-9.2%
CCc1ccc([C@@H]2CC=C(C(=O)O)[C@H](c3ccc(Cl)cc3)N2S(=O)(=O)c2ccc(C)cc2)cc1,-27.7%
CC[C@@]12C(=O)N(c3ccc(C)cc3)C(=O)N1[C@H](c1ccc(Br)cc1)[C@@H]1C(=O)N(C(C)(C)C)C(=O)[C@@H]12,14.0%
COc1cc(NC(=O)c2ccc(S(=O)(=O)N(C)C)cc2)cc(OC)c1OC,-0.4%
COc1ccc(-c2oc3ccccc3c2C#CC(C)(C)O)cc1,3.1%
CC(C)SC(=N)N,4.1%
CC(Oc1ccc(Cl)cc1Cl)C(=O)Nc1ccc(S(=O)(=O)Nc2cnc3ccccc3n2)cc1 (centres undefined),-28.8%
CCOC(=O)C1=NNC2(c3ccc(Cl)cc3)C(=O)N(c3cc(C)cc(C)c3)C(=O)C12 (centres undefined),17.2%
O=C(CCl)Nc1cc(S(=O)(=O)N2CCOCC2)ccc1N1CCOCC1,-3.4%
Cc1cccc(NC(=O)CCC(=O)N/N=C/c2ccncc2)c1,1.2%
O=C(COC(=O)c1ccc(O)cc1)Nc1ccc(S(=O)(=O)N2CCOCC2)cc1,3.6%
Fc1ccc(OCCCCCN2CCCC2)cc1,0.7%
Cc1ccc(NC(=O)C2CCCN(S(=O)(=O)c3c(C)n[nH]c3C)C2)cc1Cl (centres undefined),-7.7%
C=C1c2cc(OC)ccc2NC(=O)N1CC,-8.4%
COc1cc(OC)c2c(-c3ccccc3)cc(=O)oc2c1C(CCN1CCN(c2ccccc2)CC1)c1ccc(N(C)C)cc1 (centres undefined),-7.1%&3.7%
CCn1c(SCCC(=O)Nc2ccccc2)nnc1-c1ccc(OC)cc1,10.2%
CC(=O)N1CCc2cc(S(=O)(=O)NCCC(=O)Nc3cccc(C)c3C)ccc21,-17.1%
Cc1ccc(N(CN2C(=O)C3CC=CCC3C2=O)C(=O)c2ccco2)cc1Cl (centres undefined),-21.2%
Nc1nc2c([nH]c(=O)n2C2OC(CO)C(O)C2O)c(=O)[nH]1 (centres undefined),6.0%
O=C(CC1C(=O)NCCN1C(=O)c1ccc([N+](=O)[O-])cc1)Nc1cccc(Cl)c1 (centres undefined),6.4%
O=C(NCC1CCCO1)c1ccc(CS(=O)(=O)c2ccc(Br)cc2)o1 (centres undefined),-16.6%
CCC(=O)NC(=S)Nc1cccc(NC(=O)CC)c1,3.3%
CCOc1ccc2[nH]c(C)c(CN(C)C)c(=O)c2c1,-1.2%
Cc1cccc(N(CC(=O)NCc2ccccc2)C(=O)CCC(=O)Nc2nccs2)c1,6.5%
# (continued)
SMILES,VDR inhibitor
Cc1cc(C)c(NC(=O)CNC(=O)CN(C)Cc2ccc(Br)s2)c(C)c1,-3.8%
CN(C)/C=C(\C(=O)c1ccc(F)cc1F)c1nnnn1-c1ccccc1,-16.2%
NC(=O)C1(N2CCCCC2)CCN(C(=O)CSc2nc3ccccc3[nH]2)CC1,12.4%
Cc1ccc(N2C(=O)C3ON(c4ccccc4)C(c4ccncc4)C3C2=O)c(C)c1 (centres undefined),-2.4%
Cc1cc(NS(=O)(=O)c2c(C)c(C)cc(C)c2C)no1,5.5%
CN1C(=O)C2(c3ccccc31)C1CCCC=C1C(C#N)=C(N)C2(C#N)C#N (centres undefined),1.1%
C1=Nc2ccccc2CN1c1ccccc1,12.7%
CCOCCCn1c(SCc2ccccc2)nnc1-c1ccncc1,-6.4%
Cc1ccc(CNc2nccn(-c3cc(C)cc(C)c3)c2=O)cc1,-1.5%
Cc1ccc(C)c(CN2CCNC2=O)c1,4.1%
Cc1nc2scc(-c3ccccc3)c2c(=O)n1N,-3.6%
O=C1C(Cc2ccc(O)cc2)NC(=S)N1C1CCCCC1 (centres undefined),2.7%
COc1ccc(CCN2C(=O)CC(NNC(=O)c3ccccc3Br)C2=O)cc1OC (centres undefined),-0.6%
CN(C)S(=O)(=O)N1CCN(S(=O)(=O)c2ccc3ccccc3c2)CC1,-5.1%
Cn1ccnc1SCC(=O)Nc1ccc(Oc2ccccc2)cc1,0.6%
Cc1nn(-c2ccc(F)cc2)c(Cl)c1/C=N/NC(=O)c1cccs1,-2.9%
Cc1ccc(OCCC(=O)OCC(=O)c2ccc3c(c2)NC(=O)CO3)cc1,2.0%
O=C(c1ccc2c(c1)N(Cc1ccccc1)C(=O)c1ccccc1S2(=O)=O)N1CCN(c2ccccn2)CC1,3.7%
CCOC(=O)c1c(C)[nH]c(C(C)=O)c1C,-2.6%
Cn1nc(-c2ccc(C(=O)NCCO)cc2)c2ccccc2c1=O,3.2%
CC(C)(C)OC(=O)N1CCC(NC(=O)c2[nH]cnc2C(=O)N[C@@H](Cc2ccccc2)C(=O)OCc2ccccc2)CC1,-10.2%
COc1ccccc1NC(=O)CSc1nccn1Cc1ccc(F)cc1,3.3%

# 3 entries out of the list, sorted by SMILES length, smallest number first:
SMILES,VDR inhibitor
Cn1nc(-c2ccc(C(=O)NCCO)cc2)c2ccccc2c1=O,3.2%
Cc1nn(-c2ccc(F)cc2)c(Cl)c1/C=N/NC(=O)c1cccs1,-2.9%
O=C(c1ccc2c(c1)N(Cc1ccccc1)C(=O)c1ccccc1S2(=O)=O)N1CCN(c2ccccn2)CC1,3.7%
